Vaccinia Venus: inhibitors of vaccinia virus (Venus reporter) | Potency, µM (titrated, usually from 36.5 µM), for the others: top-dose activity change, negative = inhibition, actives largely listed as inhibitors | Vaccinia virus Venus reporter expression, fluorescence | actives 0.46% (n = 330,000); active means well fitted inhibition curve with a large enough effect; inconclusive means small, poorly fitted or top-dose-only effect; inactive means no such curve, though single readings can be large or run the other way; tested in A549 cells; further: nearly all actives have a fitted effect of over 30% in size; inactives centre near -10
Vaccinia mCherry: vaccinia inhibition (mCherry reporter) | Vaccinia virus mCherry reporter infection, fluorescence; about a quarter of the inactives have no number | AID 720579 | actives 0.63% (n = 310,000) | Potency, µM (titrated, usually from 36.5 µM), for the others: top-dose activity change, negative = inhibition, usual class: inhibitors; active = well fitted inhibition curve with a large enough effect; inconclusive = small, poorly fitted or top-dose-only effect; inactive = no such curve, though single readings can be large or run the other way; tested in A549 cells; further: nearly all actives have a fitted effect of over 35% in size; inactives centre near -10
An asterisk follows results filed as active; i = inactive; ? = inconclusive; nt = not tested or not shown; & = joins results of further samples; [ ] = remark or other dose. On the % scale 0 is the no-effect control and ±100 the full control effect; potency means the concentration at half of the fitted maximal effect.

SMILES	Vaccinia Venus	Vaccinia mCherry
Cc1cccc(OCC(=O)Nc2c(C(=O)N3CCN(c4ccccc4)CC3)oc3ccccc23)c1	-12%	-14%
O=P(CCc1ccccc1)(c1ccccc1)c1ccccc1	11%	-25%
COc1cccc(-n2ccn(CC(=O)NCc3ccc(C)cc3)c(=O)c2=O)c1	-8%	-10%
CCCCc1ccc(N=N/C(C(=O)Nc2cc(OC)c(NC(C)=O)cc2OC)=C(/C)O)cc1	-25%	-22%
COc1ccc(Cl)cc1-n1nnc(-c2nc(-c3ccccc3)no2)c1C	-1%[7.34 µM]	-3%[7.34 µM]
O=C(O)c1ccc(S(=O)(=O)c2ccc3c(c2)C(=O)N(NC(=O)c2ccc(O)cc2)C3=O)cc1	1%	-2%
N#CC1(NC(=O)Cn2cc(C(F)(F)F)ccc2=O)CCCC1	0%	-13%
CCOC(=O)Cn1c(=NC(=O)c2ccc([N+](=O)[O-])s2)sc2ccccc21	-25%	-4%
O=C(C1CC(=O)N(c2ccccc2)C1)N1CCN(c2ccccc2F)CC1 (stereo not drawn)	-12%	-16%
N#C/C(=C/C1=C(N2CCOCC2)C(=C/c2ccccc2)/CC1)C(=O)Nc1ccccc1F	70%[activator]	i
COCCCNC(=O)CN(c1cccc(Cl)c1C)S(C)(=O)=O	-16%	0%
COC(=O)C(O)(c1ccc(NC(=S)NC(=O)c2ccc(Cl)cc2Cl)c(C)c1)C(F)(F)F (stereo not drawn)	?	?
Cc1c(C(=O)NCc2nccs2)cnn1-c1ncc2c(n1)-c1ccccc1CC2	?	?
COc1ccc(SCc2cc(=O)c3cc(Cl)ccc3[nH]2)cc1	-21%	-16%
Cc1ccc2[nH]c(=O)c3cc(C(=O)NCCc4ccc(Cl)cc4)sc3c2c1	-29%	-5%
COc1cc(-c2noc(C)c2C#Cc2nccn2C)cc(OC)c1OC	-28%&-24%	-8%&-10%
COc1ccc(NC(=O)c2c(-c3ccc(C)cc3)nnc3ccccc23)c(OC)c1	-9%	-3%
Cc1ccc(SCC(=O)NC(=O)Nc2ccc3c(c2)OCCO3)cc1C	-7%	-14%
Cc1ccc(NC(=O)NC(=S)NC(=O)c2ccccc2)cc1	7.1µM*	?
C[C@H]1[C@H](C)CC[C@]2(C(=O)O)CC[C@]3(C)C(=CC[C@@H]4[C@@]5(C)CC[C@H](O)C(C)(C)[C@@H]5CC[C@]43C)[C@H]12	-25%	-24%
COc1ccc(OC)c(CNC(=O)Cc2ccc(NC(=O)N3CCSc4ncccc43)cc2)c1	-14%	-14%
COc1cc(Cl)c(C)cc1NC(=O)CSc1ccc(NC(C)=O)cc1	-1%	i
COc1ccc(CNC(=O)C2CCCN2CCc2ccccc2)cc1OC (stereo not drawn)	-4%	-10%
O=C(CSc1n[nH]c(-c2ccccn2)n1)Nc1ccc(F)cc1	?	14µM*
Cc1ccc2nc(NCC(=O)O)nc(-c3ccccc3)c2c1	?	-15%[1.46 µM]
CC(C)(CCO)Nc1ncnc2onc(-c3ccc(F)cc3)c12	-19%	i
Cc1nnc(NC(=O)CN2C(=O)c3ccccc3S2(=O)=O)s1	-16%	nt
CC(=O)Oc1ccccc1Cn1c(C)c(C(=O)NCCC#N)sc1=O	-2%	15%
COC(C[C@H](O)C[C@@H](O)[C@@H](C)OCc1ccccc1)OC	-15%	i
Cc1c(CCOC(=O)C23CC4CC(CC(C4)C2)C3)sc[n+]1Cc1ccccc1	-7%	-19%
O=C(c1cc(COc2ccc(F)cc2F)on1)N1CC[C@@H]2CCCC[C@H]2C1	-26%	i
NS(=O)(=O)c1ccc(NC(=O)CSc2nc(Nc3ccccc3)nc(N3CCOCC3)n2)cc1	-19%	-6%
CCc1ccc2nc(N(CCN(CC)CC)C(=O)c3ccco3)sc2c1	-12%	-23%
CCOC(=O)C1CCN(S(=O)(=O)c2ccc(NC(=O)c3ccco3)cc2)CC1	-8%	i
O=C1NCN(c2ccccc2)C12CCN(C(c1ccccc1)c1nnnn1C1CCCC1)CC2 (stereo not drawn)	-3%	17%
Cc1ccc(C(=O)COC(=O)COc2ccccc2[N+](=O)[O-])s1	-4%	-11%
COc1ccc(Cl)cc1NC(=O)CSc1nc(-c2ccco2)cc(C(F)(F)F)n1	-14%[7.34 µM]	-2%[7.34 µM]
Cc1cccc(CNS(=O)(=O)c2ccc(-c3coc(C)n3)cc2)c1	-6%	-5%
COc1ccc(CNC(=O)C(OC(=O)c2ccco2)c2ccccc2F)cc1 (stereo not drawn)	-14%	-17%
O=C(NCc1ccc(F)cc1)c1cc(C2CCCN(C(=O)CCCc3ccccc3)C2)on1 (stereo not drawn)	2%	1%
Cc1ccc(CNC(=O)Cc2ccc(Br)cc2)cc1	-30%	-16%
CC(=O)c1ccc(-c2ccc(Cn3c(C)nc4cc(N)c(C)nc43)cc2)cc1	-20%	-16%
C[C@]12CC[C@H](OC(=O)CCC(=O)O)CC1=CCC1C2CC[C@@]2(C)C1CC[C@@H]2N (stereo partly drawn)	-24%	-23%
COc1ccccc1/C=N/NC(=S)NCc1ccco1	2%[7.34 µM]	i[7.34 µM]
c1cc2cc(-c3c(-c4ccc5c(c4)OCO5)noc3-c3ccsc3)ccc2[nH]1	?	-17%
CC1CCCCN1Cc1ccc(-c2nnn(CC(=O)NC3CCCCC3)n2)cc1 (stereo not drawn)	-13%	-10%
CC1C(c2cccs2)=[N+]([O-])C(C)(C(=O)c2ccc(F)cc2)N1O (stereo not drawn)	0%	-2%
CCc1ccccc1N(CC(=O)O)S(C)(=O)=O	-20%	-18%
Cc1nc(-c2ccc(Cl)cc2)sc1C1(C)CC(c2ccccc2F)=NO1 (stereo not drawn)	-4%	i
Cc1ccc2[nH]c3c(c2c1)CN(C(=O)CN1CCCc2ccccc21)CC3	-15%	-12%
(next part)
SMILES	Vaccinia Venus	Vaccinia mCherry
COc1ccc(NC(C)C(=O)N/N=C/c2ccccc2OCc2cccc(Br)c2)cc1 (stereo not drawn)	-10%	-23%
COc1ccc(OCC(=O)NCC(c2ccc(Cl)cc2)N2CCCCC2)cc1 (stereo not drawn)	-5%	-13%
COc1ccc(N=[N+]([O-])c2ccc(OC)cc2)cc1	20%	i
c1ccc(-c2noc(-c3ccncc3)n2)nc1	-5%	-8%
COc1ccc(S(=O)(=O)N(CC(=O)NC(C)C)Cc2ccccc2)cc1	-4%	-4%
COc1ccc(Cl)cc1Cn1c(C)c(C(=O)N(C)Cc2ccc(F)cc2)sc1=O	3%	27%
CC(C)Oc1cccc(C(=O)C2CCCN(Cc3cnn(C(C)C)c3)C2)c1 (stereo not drawn)	-1%	5%
CCOc1ccc(CCNC(=O)COC(=O)COc2ccc(Cl)cc2)cc1OCC	-8%	i
O=C(CCc1nc2ccccc2[nH]1)Nc1ccccc1F	-18%	i
CC12CCC(=O)N1C(C(=O)Nc1cc(Cl)ccc1N1CCOCC1)CS2 (stereo not drawn)	-5%	-7%

As a working copy, 16 of the compounds above.
SMILES	Vaccinia Venus	Vaccinia mCherry
CC(=O)c1ccc(-c2ccc(Cn3c(C)nc4cc(N)c(C)nc43)cc2)cc1	-20%	-16%
C[C@]12CC[C@H](OC(=O)CCC(=O)O)CC1=CCC1C2CC[C@@]2(C)C1CC[C@@H]2N (stereo partly drawn)	-24%	-23%
COc1ccccc1/C=N/NC(=S)NCc1ccco1	2%[7.34 µM]	i[7.34 µM]
c1cc2cc(-c3c(-c4ccc5c(c4)OCO5)noc3-c3ccsc3)ccc2[nH]1	?	-17%
CC1CCCCN1Cc1ccc(-c2nnn(CC(=O)NC3CCCCC3)n2)cc1 (stereo not drawn)	-13%	-10%
CC1C(c2cccs2)=[N+]([O-])C(C)(C(=O)c2ccc(F)cc2)N1O (stereo not drawn)	0%	-2%
CCc1ccccc1N(CC(=O)O)S(C)(=O)=O	-20%	-18%
Cc1nc(-c2ccc(Cl)cc2)sc1C1(C)CC(c2ccccc2F)=NO1 (stereo not drawn)	-4%	i
Cc1ccc2[nH]c3c(c2c1)CN(C(=O)CN1CCCc2ccccc21)CC3	-15%	-12%
COc1ccc(NC(C)C(=O)N/N=C/c2ccccc2OCc2cccc(Br)c2)cc1 (stereo not drawn)	-10%	-23%
COc1ccc(OCC(=O)NCC(c2ccc(Cl)cc2)N2CCCCC2)cc1 (stereo not drawn)	-5%	-13%
COc1ccc(N=[N+]([O-])c2ccc(OC)cc2)cc1	20%	i
c1ccc(-c2noc(-c3ccncc3)n2)nc1	-5%	-8%
COc1ccc(S(=O)(=O)N(CC(=O)NC(C)C)Cc2ccccc2)cc1	-4%	-4%
COc1ccc(Cl)cc1Cn1c(C)c(C(=O)N(C)Cc2ccc(F)cc2)sc1=O	3%	27%
CC(C)Oc1cccc(C(=O)C2CCCN(Cc3cnn(C(C)C)c3)C2)c1 (stereo not drawn)	-1%	5%

Continued:
SMILES	Vaccinia Venus	Vaccinia mCherry
Brc1ccc(-c2nc(-c3cccnc3)no2)o1	-17%	-19%
COc1ccc(CC(=O)Nc2ccc(/C(C)=N\NC(=O)c3ccc(Br)o3)cc2)cc1	-17%	-18%
Cc1ccccc1/C=N/n1c(-c2cc(-c3ccccc3)n[nH]2)n[nH]c1=S	-7%	-9%
Cc1nc2c(ccc3nc(NC(=O)c4ccc5c(c4)OCCO5)sc32)s1	-24%&-18%	-7%
Cc1cc[n+](-c2[nH]c(=O)sc2/C=N/NC([S-])=Nc2ccccc2)cc1C	0%	-7%
CC1=C(C)CC(C(=O)NNC(=O)c2csc(C)c2C)C(C(=O)O)C1 (stereo not drawn)	-2%	-15%
COc1ccc(C(=O)Nc2nnc(S(=O)(=O)N3CCCCCC3)s2)cc1OC	-14%&-7%	-7%
COc1ccccc1-n1c(C)cc(C=O)c1C	-7%	nt
COc1cc(CNC(C)C23CC4CC(CC(C4)C2)C3)cc(OC)c1OC (stereo not drawn)	-14%	-17%
CC1=C(c2ccc(C(C)C)cc2)S(=O)(=O)N=C1N1CCN(c2ccccc2F)CC1	?	?
Cc1cc(NC(=O)CC(C)C)cc(-c2nc3ncccc3o2)c1O	0%	1%
O=C1CC(Sc2ncccc2C(=O)O)C(=O)N1 (stereo not drawn)	-6%	-8%
COc1ccc(NC(=O)c2cc(-c3ccco3)on2)c(OC)c1	7%	19%
CCNc1nc(NCC)n2c(SC(C(=O)Nc3cc(Cl)cc(Cl)c3)c3ccccc3)nnc2n1 (stereo not drawn)	4%	-9%
Cc1ccccc1-c1noc(-c2ccc(N3CCCCC3)c([N+](=O)[O-])c2)n1	2%	-8%
Cc1ccc(NC(=O)Nc2nnc(N(C)Cc3ccccc3)s2)c(C)c1	-7%	-15%
c1cc(-c2nnc3n2CCC3)[nH]n1	-9%	i
Cc1ccnc(NS(=O)(=O)c2ccc(NC(=O)COc3ccccc3)cc2)n1	-10%	0%
Cc1ccc(S(=O)(=O)N2CCCCC2)cc1C(=O)c1nccn1C	-9%	-8%
Cc1ccc(CSc2nncn3c2cc2sccc23)cc1	-2%	-15%
CN1C(=O)N(C)C(c2cccc([N+](=O)[O-])c2)C2=C1CCCC2=O (stereo not drawn)	4%	-13%
COc1ccc(OC)c(CCNc2ncnc3onc(C)c23)c1	?	-13%
CSCC[C@H](NC(=O)[C@@H]1Cc2c([nH]c3ccccc23)C2c3ccccc3C(=O)N21)C(=O)NCC1CCCO1 (stereo partly drawn)	3%	-10%
O=C(NCc1ccccc1Cl)c1nnc(CS(=O)(=O)c2ccccc2)o1	-12%	i
COc1ccccc1NC(=O)C/C(C)=N/NC(=O)C12CC3CC(CC(C3)C1)C2	-6%	-12%
Cc1cccc(-c2nnc(C3CCN(S(=O)(=O)c4cccc(Cl)c4)CC3)o2)c1	-14%	-12%
S=C1NCCNC(=S)NCCOCCOCCN1	4%	3%
Cn1c(=O)c2c(O)c(Cc3ccccc3)c(=O)n(C)c2n(C)c1=O	1%[7.34 µM]	-17%[7.34 µM]
NC(=O)Cn1cc(C(=O)c2ccccc2)c2ccccc21	-5%	i
Cc1ccccc1C(=O)N/N=C1/SCC(=O)N1Cc1ccccc1	-8%	i
Cc1cccc2sc(NC(=O)CN(C)S(=O)(=O)c3cccs3)nc12	?	nt
Cc1ccc(CNC(=O)Cc2ccc(-n3c(=O)[nH]c4ccsc4c3=O)cc2)cc1	-28%	?
O=c1c2ccccc2n(Cc2cccc(F)c2)c(=O)n1Cc1ccccc1Cl	-8%	-5%
Nc1cc(=O)[nH]c(N2CCN(c3ccccc3)CC2)n1	1%	-2%
CCc1nc2ccc(C(=O)N(C)C(C)C)cn2c1N(CCC(C)C)CCN(C)C	0%	2%
c1ccc(-c2nccc(-c3ccc(-n4cnc5ccccc54)cc3)n2)nc1	?	11µM*
CCCCC(C(=O)NC1CCCC1)N(C(=O)c1snc(C(N)=O)c1N)c1ccc(OCC)cc1 (stereo not drawn)	-13%	-2%
COc1ccccc1NC(=S)N(Cc1ccco1)Cc1cc2cc(C)c(C)cc2[nH]c1=O	?	?
CC1CC(C)CN(C(=O)c2cc3ccccc3o2)C1 (stereo not drawn)	-15%	-9%
COc1cc(=O)[nH]c(SC(C)C(=O)Nc2cc(C)on2)n1 (stereo not drawn)	10%	-21%
CN(C)c1ccc(-c2n(C)c3ccccc3[n+]2C)cc1	?	?
Cc1cccc(Cn2c(C)c(C)c3cc(C(=O)NCCN4CCOCC4)ccc32)c1	-22%	-15%
Cc1cc(C)c(NC(=O)Cn2c(=O)n(-c3ccc(F)cc3)c(=O)c3c(C)c(C(=O)N(C)C)sc32)c(C)c1	-4%	-11%
O=[N+]([O-])c1cccc(S(=O)(=O)Nc2ccc(-c3ccc(N4CCCC4)nn3)cc2)c1	-10%	-25%
CCc1ccc(-n2c(=O)c3c4c(sc3n(CC(=O)N3CCC(C)CC3)c2=O)CCC4)cc1	-6%	3%

Screens deposited in PubChem by National Center for Advancing Translational Sciences (NCATS).
